Compound activity (PubChem)
BmaI1 enzyme: BmaI1 acyl-homoserine lactone synthase inhibition – biochemical, fluorescence intensity, with counterscreen (AID 720554). BmaI1 enzyme assay, fluorescence intensity; hits give high values; test concentration not given here; a few actives read low; strong numbers were not always called active. inhibition, %. hit rate 0.4% among 12,000;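 active means both replicates within 2 robust z-scores of the inhibited control and a quiet counterscreen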;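 further: 0% = uninhibited enzyme and 100% = inhibited control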
BmaI1 enzyme counterscreen: recorded beside BmaI1 enzyme, whose call it bears; inhibition, %; measured here: counterscreen; design of the counterscreen not given here;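 first of two replicates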
* = called active by the depositor. Not all compounds are listed; the hit share may differ from the screen's.

SMILES	BmaI1 enzyme	BmaI1 enzyme counterscreen
COCCCOc1ccnc(CS(=O)c2nc3ccccc3[nH]2)c1C (centres undefined)	20	16
COc1ccc(CSc2nnc(SC(C)C(N)=O)s2)cc1 (centres undefined)	12	2
CCOC(=O)Nc1ccc2c(CN(C)CC(=O)Nc3cccc(C)c3C)cc(=O)oc2c1	4	4
CCn1c(SCC(=O)N(C)CC(=O)Nc2ccccc2Cl)nnc1-c1ccco1	-14	8
Cc1ccccc1-c1noc(CSc2ncccn2)n1	16	8
O=C(O)C1CCCN(C(=O)c2cccc3ccccc23)C1 (centres undefined)	3	0
CCN(C(=O)/C=C/c1ccc(C(F)(F)F)cc1)C1CCS(=O)(=O)C1 (centres undefined)	12	8
CC1CN(CC(=O)N(c2ccc(Nc3ccccc3)cc2)C(C)C)CC(C)O1 (centres undefined)	20	15
Cc1cc(C)n(CCCNc2nc(-c3cccnc3)nc3ccccc23)n1	10	8
CC1CCCCC1NC(=O)COn1nnc2ccc(Cl)cc21 (centres undefined)	18	14
Cc1ccc(SCC(=O)NC(=O)C(C)C)cc1C	14	8
Cn1cnnc1SCC(=O)Nc1ccccc1C(=O)Nc1ccc2c(c1)OCO2	-7	-2
O=C(c1cnn(C(=O)CCN2CCN(c3ccccc3)CC2)c1)c1ccccc1O	-28	-16
C=CCN(Cc1cccs1)C(=O)Cn1c(=O)cnc2ccccc21	18	1
CCOc1cc(N2CCOCC2)c(OCC)cc1NC(=O)CSc1ncccn1	20	-10
O=C(OCc1cn2cc(Cl)ccc2n1)C1COc2ccccc2O1 (centres undefined)	10	-1
Cn1c(SCC(=O)c2ccc(Cl)s2)nnc1C1COc2ccccc2O1 (centres undefined)	24	14
Cc1cnc(C(=O)OCC(=O)N2C(C)CCCC2C)cn1 (centres undefined)	14	10
O=C(COc1ccc2oc3ccccc3c2c1)NCCc1ccccn1	13	7
CCCCNC(=S)NN1C(=O)NC(C)(c2cccc(OC)c2)C1=O (centres undefined)	2	2
O=C(O)CCc1nc(-c2ccccc2)c(-c2ccccc2)o1	4	-4
Cc1ccc(C(=O)OCC(=O)N2C(C)CCCC2C)s1 (centres undefined)	13	2
O=C(COc1ccc2ccccc2c1)NC1CCC(O)CC1 (centres undefined)	8	12
COc1ccccc1OCC(=O)Nc1nc(-c2ccc(S(=O)(=O)N3CCCC3)cc2)cs1	14	2
Cc1ccc(CN(C)CC(O)COC(c2ccccc2)c2ccccc2C)o1 (centres undefined)	8	8
COc1cccc(NC(=O)C(Sc2nnc3n2CCCCC3)c2ccccc2)c1 (centres undefined)	10	8
CSCCC(C(=O)O)N1C(=O)c2ccccc2C1=O (centres undefined)	4	2
Cc1nn(-c2ccccc2)c(C)c1/C=N/N=C1\C(=O)Nc2ccccc21	8	-6
Cc1ccc(-c2nn(-c3ccccc3)cc2C(=O)Nc2ccccc2C)o1	-6	-4
CCOC(=O)c1ccc2nc(CCC(=O)NC3CCC(C)CC3)c(=O)n(CC)c2c1 (centres undefined)	0	-4
CC(SCC(=O)O)c1nc2ccccc2[nH]1 (centres undefined)	7	14
CC(=O)O[C@H]1C[C@@H]2CC[C@@H]3[C@H](CC[C@@]4(C)[C@H]3C[C@H]([N+]3(C)CCCCC3)[C@@H]4OC(C)=O)[C@@]2(C)C[C@@H]1N1CCCCC1	54	2
CCOc1ccc(NC(=O)CSCCn2c(C)csc2=O)cc1	8	8
O=C(CSC1CCS(=O)(=O)C1)OCc1c(Cl)cccc1Cl (centres undefined)	-8	-4
CCn1c(CN2CCCCCC2=O)n[nH]c1=S	66	40
CCOC(=O)[C@@H](CCc1ccccc1)N[C@@H](C)C(=O)N1CCC[C@H]1C(=O)O	6	12
CCN(CC)S(=O)(=O)c1ccc2c(c1)CCCN2	18	-4
O=C(O)c1ccc(N2C(=O)CSC2=S)cc1	64	23
Nc1nc(N)nc(CSc2nnc(-c3ccccc3)n2-c2ccc(F)cc2)n1	9	4
C=CCn1c(=O)/c(=C\c2ccccn2)s/c1=C(/C#N)C(=O)NCC1CCCO1 (centres undefined)	4	-2
O=C(OCC(=O)N1CCCC1)c1ccc(-c2ccc(C(=O)OCC(=O)N3CCCC3)s2)s1	-7	-6
CC(C)CN1CCOC(CNC(=O)NC2CCCCC2)C1 (centres undefined)	12	4
CN(Cc1cccs1)C(=O)c1nc(-c2ccccc2)n(-c2ccccc2)n1	14	2
Cn1ccsc1=NC(=O)c1ccc(OC(F)(F)F)cc1	10	10
Cc1cccc(C(=O)NCCC(=O)N2CCc3ccccc3C2)c1	12	8
CC(=O)NC12CC3CC(C1)CC(C(=O)OCC(=O)N1CCC(c4ccccc4)=N1)(C3)C2	28	0
Cc1nn(-c2cccc(Cl)c2)nc1C(=O)NC1CCCCCC1	10	6
O=C(O)C(O)c1ccc(F)cc1 (centres undefined)	7	-1
N#C/C(=C(\OCc1nnc(-c2ccccc2)o1)C(F)(F)F)c1nnc2n1CCCCC2	7	2
C=CCn1c(C)nnc1SCCN1C(=O)c2ccccc2S1(=O)=O	8	4
CN(Cc1cccnc1)C(=O)CNC(=O)c1ccc(Cl)cc1Cl	-12	-10
CC1CCCCC1NC(=O)c1ccc2ccccc2n1 (centres undefined)	-12	-12
COC(=O)Nc1nc2ccc(C(=O)c3ccccc3)cc2[nH]1	-12	-4
CN(C)CCn1c(=S)[nH]c2ccccc2c1=O	44	28
CCCc1c(OCCCCc2nn[nH]n2)ccc(C(C)=O)c1O	2	4
CC(C)N(Cc1ccccc1)CC(O)COc1ccc(S(=O)(=O)N2CCOCC2)cc1Cl (centres undefined)	17	13
Cc1noc(C)c1COC(=O)c1ccc2c(c1)S(=O)(=O)N=C1CCCCCN12	10	12
CN(Cc1ccc(OC(F)F)cc1)C(=O)c1ccc(S(C)(=O)=O)cc1	8	0
Cc1cc(C)c(C)c(S)c1C	-2	-1
O=C(CSc1n[nH]c(=O)n1Cc1ccccc1)Nc1ccc2c(c1)CCC2	4	2
Going on with the list:
SMILES	BmaI1 enzyme	BmaI1 enzyme counterscreen
N#Cc1cccc(OCC(=O)c2ccc[nH]2)c1	24	2
Cc1cccc(NC(=O)c2ccccc2NC(=O)CN2CSCC2=O)c1	18	12
COc1ccc(OCCSc2nnc3sc4ccccc4n23)cc1	34	16
CCOC(=O)c1c(C)[nH]c(C(=O)C(C)Sc2nnnn2-c2cc(C)ccc2OC)c1C (centres undefined)	7	4
CC(C)c1cc(NC(=O)COC(=O)c2ccccc2-n2cnnn2)on1	9	2
COC(=O)/C(=C(/O)CSc1nnc(Cc2csc(C)n2)o1)c1nc2ccccc2[nH]1	7	2
N#Cc1ccc(/C=N/c2oc(-c3ccco3)c(-c3ccco3)c2C#N)cc1	36	20
CCOC(=O)C1=C(CC)Nc2ccccc2N=C1N=Cc1c(O)n(CC)c(=S)n(CC)c1=O	4	0
COc1ccc(CCN2C(=O)C(C)SC2c2ccc(C#N)cc2)cc1OC (centres undefined)	50	16
COc1cc(CC(=O)Oc2ccc(-c3nnco3)cc2)cc(OC)c1OC	15	16
Cc1ccc(Cn2c(=O)c3ccccc3n3c(SCc4cc(=O)n5ccsc5n4)nnc23)cc1	18	7
CCN(CC)S(=O)(=O)c1cccc(C(=O)OCC(=O)c2ccc3c(c2)OCO3)c1	12	10
COc1ccc(-n2nnnc2SCc2cc(=O)oc3cc(O)ccc23)cc1	12	9
COC(=O)C1Cc2ccccc2CN1C(=O)CSc1nnc(-c2cc3c(s2)CCC(C)C3)o1 (centres undefined)	16	6
Cc1onc(-c2ccccc2)c1C(=O)OCC(=O)Nc1ccccc1	27	14
Cc1nn(C2CCS(=O)(=O)C2)c(Cl)c1CNCC1CN(CC(C)C)CCO1 (centres undefined)	26	10
C/C(=N\NC(=O)Cc1ccccc1)C(c1ccccc1)N1CCOCC1 (centres undefined)	13	6
CC(C)(C)Nc1nc2c(s1)CCCC2	64	22
CCN(CC(=O)NC1CCS(=O)(=O)C1)Cn1nc2c(Cl)cc(Cl)cn2c1=S (centres undefined)	94	71
CCOc1cc(C(=O)N(CC(F)(F)F)C(C)C2CC2)ccc1OC (centres undefined)	18	8
CC(=O)Nc1ccc(C(=S)N2CCN(c3ccccc3O)CC2)cc1	94	35
O=C(NCC1CCCCC1)c1ccc2c(c1)OCCO2	10	16
CCOc1ccc(-n2c(O)c(/C=N/Nc3nc(C)cc(C)n3)c3ccccc3c2=O)cc1	64	24
CCOc1ccccc1NC(=O)COC(=O)C1CCC(=O)N1 (centres undefined)	8	8
CS(=O)(=O)c1ccc(-c2cc(Br)sc2-c2ccc(F)cc2)cc1	4	8
CCc1ccc2nc(NC(=O)Cn3ccc(=O)[nH]c3=O)sc2c1	13	6
COC(=O)C(CC(C)C)NC(=O)c1ccccc1C (centres undefined)	20	7
O=C(CO)Nc1cc(Cl)ccc1Cl	18	4
COC(=O)CNC(=O)Cc1cccc2ccccc12	10	6
CNS(=O)(=O)c1cccc(C(=O)OC2CCCCC2=O)c1 (centres undefined)	6	4
N#CC1(NC(=O)CSc2nc3scc(-c4cccs4)c3c(=O)[nH]2)CCCCC1	17	9
COC(=O)c1sc(N)c(C(=O)OC)c1COC(=O)c1ccc2c(c1)OCCO2	12	2
CCn1nc(C(=O)n2cc(C(=O)c3ccccc3O)cn2)c2ccccc2c1=O	-2	-3
Cc1cc(=O)oc2cc(OC(C)C(=O)NC3(C#N)CCCCC3)ccc12 (centres undefined)	14	10
Cc1onc(-c2ccccc2)c1C(=O)OCCN1C(=O)c2ccccc2C1=O	6	2
CCN(CC(=O)Nc1ccccc1N1CCOCC1)CC(=O)NC1CCS(=O)(=O)C1 (centres undefined)	0	2
O=C(OCC(=O)N1CCOCC1)c1ccc2ccccc2c1	2	-6
Nc1c(S(=O)(=O)c2ccccc2)c2nc3ccccc3nc2n1CCNC(=O)c1cccs1	10	6
Cc1cc(C(=O)COC(=O)C23CC4CC(CC(O)(C4)C2)C3)c(C)n1C1CC1	10	2
O=C(COC(=O)CN1C(=O)c2ccccc2C1=O)Nc1ccccc1	34	4
NC(=O)COC(=O)c1ccc(O)cc1	5	2
Cc1nc(-c2ccc(-n3nncc3-c3cccs3)cc2)cs1	26	14
CC(c1ccc(-n2cncn2)cc1)N(C)c1ncnc2sc3c(c12)CCCC3 (centres undefined)	26	16
CC(C(=O)Nc1cccc(C#N)c1)N(C)CC(=O)Nc1ccc(Cl)cc1 (centres undefined)	-7	-3
O=C(Cc1ccc2c(c1)OCCO2)NCc1ccco1	6	5
CN(Cc1ccccc1F)C(=O)CCCn1c(=O)oc2ccccc21	16	10
O=C(O)/C=C/c1ccc(Cl)cc1Cl	12	4
CC(=O)Nc1ccc(S(=O)(=O)N(C)CC(=O)OCc2cn3cc(Cl)ccc3n2)cc1	15	0
N#CCCn1nc(-c2ccc(Cl)cc2)cc1-n1c(C(F)(F)F)nc2ccccc21	16	8
COc1ccc(/C=C(/C#N)S(=O)(=O)C2CCCCC2)cc1	13	-3
Cc1nnc(SC(C)C(=O)NC(C)(C#N)C(C)C)n1-c1ccccc1 (centres undefined)	10	7
O=C(c1cc(C2CC2)nn1-c1ccccc1)N1CCN(c2ccccn2)CC1	14	16
CCCNC(=O)CSc1nnc(-c2ccncc2)n1CCOC	10	0
c1ccc(Nc2ncnc3sccc23)cc1	8	8
COC(=O)c1cc(COC(=O)CNC(=O)C23CC4CC(CC(C4)C2)C3)oc1C	11	4
O=C(NC1=NCCS1)C1CC=CCC1 (centres undefined)	-10	-10
NC(=O)COC(=O)c1n[nH]c2ccccc12	8	4
Cc1nccn1-c1ccc(C(F)(F)F)cc1NC=O	10	11
O=C(CSc1nnc(Cc2ccccc2)o1)C12CC3CC(CC(C3)C1)C2	6	-2
CC(c1ccccc1)n1c(SCC(=O)N(C)C)nc2ccccc2c1=O (centres undefined)	10	8
Continuation.
SMILES	BmaI1 enzyme	BmaI1 enzyme counterscreen
O=C(CNC(=O)C12CC3CC(CC(C3)C1)C2)N1CCN(c2ccccc2Cl)CC1	16	12
Cc1ccccc1-n1ccnc1SCC(=O)O	12	10
N#C/C(=C(/O)COc1ncnc2ccccc12)c1nc2ccccc2[nH]1	16	7
CN1C(=O)N(CCOc2ccc(Cl)cc2)C(=O)C1(C)C	22	3
N#CCOC(=O)[C@H](Cc1ccccc1)N1C(=O)c2ccccc2C1=O	16	11

Single records, as listed above. Screens in order: BmaI1 enzyme | BmaI1 enzyme counterscreen
`O=C(CNC(=O)C12CC3CC(CC(C3)C1)C2)N1CCN(c2ccccc2Cl)CC1` is listed as 16 | 12
`N#CCOC(=O)[C@H](Cc1ccccc1)N1C(=O)c2ccccc2C1=O` is listed as 16 | 11

Ordered by count of non-hydrogen atoms (falling): part of the list above
SMILES	BmaI1 enzyme	BmaI1 enzyme counterscreen
O=C(CNC(=O)C12CC3CC(CC(C3)C1)C2)N1CCN(c2ccccc2Cl)CC1	16	12
O=C(CSc1nnc(Cc2ccccc2)o1)C12CC3CC(CC(C3)C1)C2	6	-2
N#CCOC(=O)[C@H](Cc1ccccc1)N1C(=O)c2ccccc2C1=O	16	11
CN1C(=O)N(CCOc2ccc(Cl)cc2)C(=O)C1(C)C	22	3
Cc1ccccc1-n1ccnc1SCC(=O)O	12	10
NC(=O)COC(=O)c1n[nH]c2ccccc12	8	4
O=C(NC1=NCCS1)C1CC=CCC1 (centres undefined)	-10	-10

A section of the results above:
SMILES	BmaI1 enzyme	BmaI1 enzyme counterscreen
COc1ccc(CSc2nnc(SC(C)C(N)=O)s2)cc1 (centres undefined)	12	2
CCOC(=O)Nc1ccc2c(CN(C)CC(=O)Nc3cccc(C)c3C)cc(=O)oc2c1	4	4
CCn1c(SCC(=O)N(C)CC(=O)Nc2ccccc2Cl)nnc1-c1ccco1	-14	8
Cc1ccccc1-c1noc(CSc2ncccn2)n1	16	8
